WNV protease inh – blocks West Nile virus NS2B-NS3 protease activity | WNV NS2B-NS3 protease, fluorogenic substrate Ex360/Em465; stronger effect = lower value | z-score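 (tested at a level between 10 and 100 µM)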 | P06935 | AID 577 | hit rate 0.18% among 65,000;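 active = z-score at -3 or under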;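 also: score is relative to mean and spread of the compound wells of a plate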
Target sequence (P06935 1371-1501 limits assumed): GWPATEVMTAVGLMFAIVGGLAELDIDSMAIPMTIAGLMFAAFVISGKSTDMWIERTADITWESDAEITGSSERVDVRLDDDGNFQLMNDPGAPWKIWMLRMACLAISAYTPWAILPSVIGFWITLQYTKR
Target sequence (P06935 1502-1679 limits assumed): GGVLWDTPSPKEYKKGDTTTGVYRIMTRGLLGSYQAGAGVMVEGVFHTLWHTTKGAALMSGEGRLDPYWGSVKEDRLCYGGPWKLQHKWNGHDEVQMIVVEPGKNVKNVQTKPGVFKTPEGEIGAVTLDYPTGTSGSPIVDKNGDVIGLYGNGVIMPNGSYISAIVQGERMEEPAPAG
MT1-MMP reporter – inhibitors of MT1-MMP promoter transcription, cell-based, luciferase reporter, luminescence (AID 618); MT1-MMP promoter luciferase reporter cells, luminescence; hit rate 0.62% among 87,000; calls from a first round at 10 µM; hits with a dose series show EC50 in µM;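 active = over half of the reporter light lost at 10 µM or EC50 under 50 µM; inactive = the rest and hits that failed the dose series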;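 also: actives suppress MT1-MMP promoter-driven transcription so potencies describe inhibitors; HT1080 fibrosarcoma cells; overnight exposure; toxic or luciferase-blocking compounds were not removed from the actives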
* hit, by the source's call; i = inactive; . = not tested or not shown; + = active, no number.

SMILES	WNV protease inh	MT1-MMP reporter
CCOc1cccc(OCCCCN2CCOCC2)c1	-1.5	.
O=C(NCc1ccco1)C1CCCN(S(=O)(=O)c2cccc3nonc23)C1 (configuration not stated)	-1.8	.
CC(C)(Oc1ccc(Cl)cc1)C(=O)NCc1ccncc1	0.04	.
CCOC(=O)NCc1ccc2[nH]c(C)cc2c1	-0.06	.
CCNc1nc(Oc2ccc(C(=O)OCC)cc2)nc(SC)n1	0.35	.
COc1ccc(CC(=O)Nc2nccs2)cc1OC	0.07	.
O=C(CC1NCCNC1=O)OCCCc1ccccc1 (configuration not stated)	-0.25	.
O=C(CCn1nc(-c2ccc(Cl)cc2)ccc1=O)NCCCN1CCCCCC1	-0.74	.
Oc1ccc(-c2nc3ncccn3c2Nc2ccc3c(c2)OCO3)cc1	-1.1	.
CC(C(=O)Nc1ccccc1-c1ccccc1)N1CCN(C(=O)c2ccco2)CC1 (configuration not stated)	-0.32	.

Some of the entries above in another layout.
smiles,WNV protease inh,MT1-MMP reporter
CCOC(=O)NCc1ccc2[nH]c(C)cc2c1,-0.06,.
CCNc1nc(Oc2ccc(C(=O)OCC)cc2)nc(SC)n1,0.35,.
COc1ccc(CC(=O)Nc2nccs2)cc1OC,0.07,.
O=C(CC1NCCNC1=O)OCCCc1ccccc1 (configuration not stated),-0.25,.
O=C(CCn1nc(-c2ccc(Cl)cc2)ccc1=O)NCCCN1CCCCCC1,-0.74,.
Oc1ccc(-c2nc3ncccn3c2Nc2ccc3c(c2)OCO3)cc1,-1.1,.
CC(C(=O)Nc1ccccc1-c1ccccc1)N1CCN(C(=O)c2ccco2)CC1 (configuration not stated),-0.32,.

(more compounds)
SMILES	WNV protease inh	MT1-MMP reporter
Cc1cc(=O)[nH]c(N2CCN(Cc3ccccc3)CC2)n1	0.31	.
CC(C)(C)OC(=O)N[C@@H](Cc1ccccc1)c1nnc(S(=O)(=O)Cc2ccccc2)o1	-0.88	.
Cc1c(Br)c(C(F)(F)F)nn1CC(=O)N1CCCC1	0.9	.
Cn1cc(S(=O)(=O)Nc2ccc(F)cc2F)c(=O)n(C)c1=O	-0.03	.
CCOCCCNC(=O)C1CCN(S(=O)(=O)N(CC(C)C)CC(C)C)CC1	0.59	.
CCN(Cc1ccccc1)S(=O)(=O)c1ccc(S(=O)(=O)N2CCN(C)CC2)cc1	-0.43	.
CC1=C(C)CC(C(=O)c2ccccc2)C(C(=O)O)C1 (configuration not stated)	0.44	.
CCCN1/C(=C2/SC(=S)N(CC)C2=O)C=Cc2ccccc21	.	i
COc1cc2c(cc1OC)C(C(=O)NCc1ccco1)C1c3ccccc3CCN1C2=O (configuration not stated)	.	i
CCN1CCN(C(=O)c2ccc(CS(=O)(=O)Cc3ccccc3F)o2)CC1	.	i
COC(=O)[C@H](C)[C@H]1C[C@]1(C)[C@H](NC(=O)OCc1ccccc1)c1ccccc1	.	i
COc1ccc(NC(=O)/C(Cl)=C(/Cl)S(=O)(=O)Cc2ccc(C)cc2)cn1	.	14µM*
CCOCCCNC(=O)CNC(=S)N(Cc1ccccc1F)C1CCCCC1	.	i
COc1cc(NC(=O)CCNC(=O)Cn2cnc3ccccc3c2=O)cc(OC)c1OC	.	i
N#Cc1cc2c(nc1SCC(O)CS(=O)(=O)Cc1ccc(Cl)cc1)CCCC2 (configuration not stated)	.	i
O=C(CN1CCN(c2ncc(C(F)(F)F)cc2Cl)CC1)N1CCN(c2ncc(C(F)(F)F)cc2Cl)CC1	.	i
CN=C(C)c1c(O)c2ccccc2oc1=O	.	i
CCC(C)C(NC(=O)C1CCC(C)CC1)C(=O)NCc1ccccn1 (configuration not stated)	.	i
Cc1ccc(/C=N\Nc2cn[nH]c(=O)c2Cl)cc1	.	i
CCOc1ccc(S(=O)(=O)NCCSc2ccccc2)cc1	.	i

2 entries from above in a different format.
Structure: Cc1ccc(/C=N\Nc2cn[nH]c(=O)c2Cl)cc1
  WNV protease inh: . | MT1-MMP reporter: i

Structure: CCOc1ccc(S(=O)(=O)NCCSc2ccccc2)cc1
  WNV protease inh: . | MT1-MMP reporter: i

(cont.)
SMILES	WNV protease inh	MT1-MMP reporter
CCOc1cc2[nH]c(=O)n(CCC(=O)NCc3ccc(OC)cc3)c(=O)c2cc1OCC	.	i
CCN(Cc1ccccc1)Cc1c(C)[nH]c2c(C)c(C)ccc2c1=O	.	i
CCCc1cc2c(n1Cc1ccc(OC)cc1)C(C)C1CN(C(=O)c3ccccc3)C(C)(C(=O)OC)C21 (configuration not stated)	.	i
COC(=O)[C@@]1(Cc2ccccc2)[C@H]2c3cc(C(=O)N4CCCC4)n(Cc4cccc5ccccc45)c3C[C@H]2CN1C(=O)c1ccccc1	.	i
O=C(N[C@@H](c1ccccc1)[C@@H]1C[C@H]1C(=O)NCc1ccccn1)OCc1ccccc1	.	i
COC(=O)[C@@]1(Cc2ccc(F)cc2)[C@H]2c3cc(C(=O)N(C)C)n(Cc4ccc(OC(F)(F)F)cc4)c3C[C@H]2CN1C(=O)c1ccccc1	.	i
Clc1ccc(Cn2ncc3c(NCc4ccccc4)ncnc32)cc1	.	i
CCC/C=C(\CCC)C(NC(=O)OCC(C)C)c1ccc(C(=O)OC)cc1 (configuration not stated)	.	i
CCOc1ccc2nc(NC(=S)NCc3ccccc3)sc2c1	.	i
COc1ccc(OC)c(N(CC(=O)N2CCC(C)CC2)S(=O)(=O)c2ccc(OC)c(OC)c2)c1	.	i
Cc1cc(NC(=O)CSc2nc3c(sc4ccccc43)c(=O)n2CCc2ccccc2)n[nH]1	.	i
COC(=O)N1CC=CC1(C)C(=O)NCC1CC1 (configuration not stated)	.	i
Cc1cc(CNC(=O)C(C)Cc2ccccc2)nn1C (configuration not stated)	.	i
CN(C)/C=N/c1cc(=O)n(C)c(=O)n1CC1CC1	.	i
[O-][n+]1c2c(c3c4non(O)c4ccc31)CCCC2	.	i
Cc1cccc(N(CC(=O)NCCC2=CCCCC2)S(C)(=O)=O)c1C	.	i
CC(=O)N1[C@H](C)C=C[C@]1(Cc1ccccc1)C(=O)NCc1cc(F)cc(C(F)(F)F)c1	.	i
COc1cc(S(=O)(=O)N2CCCCC2)ccc1NC(=O)Cc1ccccc1	.	i
CCOC(=O)N1CCN(C(=O)C2CCCN(S(=O)(=O)c3ccc(C)cc3)C2)CC1 (configuration not stated)	.	i
COC(=O)[C@@]1(Cc2ccccc2)[C@H]2c3cc(C(=O)N4CCCC4)n(Cc4ccccn4)c3C[C@H]2CN1C(=O)c1ccccc1	.	i
COc1ccccc1CC(=O)Nc1cc(Cl)ccc1O	.	i
NC(=O)C1(N2CCCCC2)CCN(c2nc(-c3ccc(Br)cc3)cs2)CC1	.	i
Cc1cc(NC(=O)c2ccc(NC(=O)CC(C)C)cc2)no1	.	i
CCC/C=C(\CCC)C(NC(=O)c1ccc(C(F)(F)F)cc1)c1ccc(C(F)(F)F)cc1 (configuration not stated)	.	i
Cc1ccc(N2C(=O)CC(n3ccnc3)C2=O)cc1C (configuration not stated)	.	i
CCOC(=O)C1=C(C)N(CCCCCC(=O)O)C(=O)NC1c1ccc(Br)cc1 (configuration not stated)	.	i
COc1ccc(Nc2cc(C(=O)NCCCN3CCOCC3)c3ccccc3n2)c(OC)c1	.	i
COCCNC(=O)[C@@]1(C)C=C[C@@H](Cc2ccccc2)N1C(=O)c1ccccc1	.	i
COC(=O)CSc1snnc1-c1ccc(Cl)c(Cl)c1	.	i
CCN1C(=O)CSc2ccc(C(=O)NCc3ccccc3OC)cc21	.	i
O=C(c1cc2cc(Br)ccc2oc1=O)N1CCCC1	.	i
Cc1ccc(NC(=O)Nc2cccs2)nc1	.	i
CCOC(=O)C1CN(S(=O)(=O)c2ccccc2)CCN1S(=O)(=O)c1ccccc1 (configuration not stated)	.	i
Cn1c(N2CCCCC2)cc(=O)n(C)c1=O	.	i
CCOC(=O)c1ccc(N2C(=O)CC(N(Cc3ccc4c(c3)OCO4)C(=O)Nc3ccccc3)C2=O)cc1 (configuration not stated)	.	i
COC(=O)[C@@]1(Cc2ccc(F)cc2)[C@H]2c3cc(C(=O)N(C)C)n(CC4CC4)c3C[C@H]2CN1C(=O)c1ccccc1	.	i
CCC(CC)C(=O)NCCc1ccc(F)cc1	.	i
Cn1c(N)c(C(=O)COC(=O)c2cc(C(F)(F)F)nc3c(C(F)(F)F)cccc23)c(=O)n(C)c1=O	.	i
Cc1ccccc1OCCn1cc(/C(N)=N/O)c2ccccc21	.	i
O=c1[nH]cnc2scc(-c3ccccc3)c12	.	i
COC(=O)c1ccccc1NC(=O)C1CC(=O)N(c2ccc(C)c(C)c2)C1 (configuration not stated)	.	i
CCOc1cc(C=O)c(Br)cc1OC1CCCC1	.	i
COCCNC(=O)C1(C)C=CC2(CCCCC2)N1C(=O)c1ccccc1 (configuration not stated)	.	i
COC(=O)CSc1ncnc2c1sc1nc(N3CCOCC3)c3c(c12)CCCC3	.	i
CC(C)CNC(=O)c1ccccc1NC(=O)Nc1ccccc1	.	i
Cc1ccccc1C(=O)NCc1nnc(SCC(=O)N2c3ccccc3Sc3ccccc32)n1C	.	i
c1csc(CNCCN2CCOCC2)c1	.	i
CCOC(=O)N1CCN(CC(O)COCCC23CC4CC(CC(C4)C2)C3)CC1 (configuration not stated)	.	i
Cc1ccc(S(=O)(=O)c2cccc(S(=O)(=O)N3CCOCC3)c2)cc1S(=O)(=O)N1CCOCC1	.	i
CSC1=NC2C(N1)N(C)C(=O)N2C (configuration not stated)	.	i

Another view of some results above.
Values run as follows: WNV protease inh	MT1-MMP reporter
CC(C)CNC(=O)c1ccccc1NC(=O)Nc1ccccc1
    .	i
Cc1ccccc1C(=O)NCc1nnc(SCC(=O)N2c3ccccc3Sc3ccccc32)n1C
    .	i

Remaining list, next part:
SMILES	WNV protease inh	MT1-MMP reporter
Cc1ccccc1NS(=O)(=O)c1ccc(C)c(C(N)=O)c1	.	i
O=C(NCC1CCCO1)c1ccc2c(=O)n(Cc3ccco3)c(SCC(=O)N3CCCC3)nc2c1 (configuration not stated)	.	i
COc1ccc(CCN2C(=S)NC3CC2(C)Oc2ccc([N+](=O)[O-])cc23)cc1OC (configuration not stated)	.	i
Cc1nn(-c2ccccc2)c(OC(=O)c2cccs2)c1S(=O)(=O)c1ccc([N+](=O)[O-])cc1	.	i
O=C1/C(=C/c2cccs2)CCc2ccccc21	.	i
CCCN1Cc2cccc(C(=O)Nc3ccc(CC)cc3)c2C1=O	.	i
CCOC(=O)c1cccnc1SCC(=O)N(CC)c1cccc(C)c1	.	i
COC(=O)[C@@]1(Cc2ccc(F)cc2)[C@H]2c3cc(C(=O)N(C)C)n(Cc4cc(C)n(C)n4)c3C[C@H]2CN1C(=O)c1ccccc1	.	i
O=C(C1CCCN(Cc2ccccc2)C1)N1CCCCC1 (configuration not stated)	.	i
O=C(c1csc2c1CCCC2)N1CCN(c2cccc(C(F)(F)F)c2)CC1	.	i
CCCn1c(SCC(=O)NCc2ccccc2)nnc1-c1ccncc1	.	i
NC(N)=NCCC[C@H](NC(=O)OCc1ccccc1)C(=O)O	.	i
CCOC(=O)CSc1nc2cc(C(=O)N3CCCC3)ccc2c(=O)n1Cc1ccccc1	.	i
NC(=O)NCc1ccc(C(=O)OCc2ccncc2)cc1	.	i
COCCNC(=O)c1ccc2c(=O)n(Cc3ccco3)c(SCC(=O)NC3CCCC3)nc2c1	.	i
CCC(C)NCCOCCOc1ccc(F)cc1 (configuration not stated)	.	i
CCOC(=O)C1=C(C)N(CCCCCC(=O)O)C(=O)NC1c1ccc(Cl)cc1 (configuration not stated)	.	i
CCCCN1C(=O)NC(c2ccc(OC)cc2)C(C(=O)OCc2ccccc2)=C1C (configuration not stated)	.	i
CCN(c1cccc(C)c1)S(=O)(=O)c1cccc(C(=O)O)c1	.	i
NS(=O)(=O)c1ccc(CCNC(=O)C2CCCCC2)cc1	.	i
CC(Cc1ccccc1)C(=O)NCc1ccncc1 (configuration not stated)	.	i
Cc1ccc(-c2cc(-c3ccccc3)c3c(N)c(S(C)(=O)=O)sc3n2)cc1	.	i
Cc1oc(C(C)(C)C)cc1C(=O)Nc1cccc(C(=O)O)c1	.	i
CCOC(=O)C1=NNC(C(=O)c2ccc(OC)cc2)C1c1ccccc1 (configuration not stated)	.	i
COc1ccc(C2=NOC(C(=O)NCc3cccs3)C2)cc1OC (configuration not stated)	.	+
Nc1ccccc1C#CCCCCO	.	i
CCC(C)C(NC(=O)C1CCC(C)CC1)C(=O)Nc1cc(OC)ccc1OC (configuration not stated)	.	i
COc1ccc(Cl)cc1NC(=O)CCCN1C(=O)CCC1=O	.	i
Cc1ccccc1Cn1c(=O)n(CCC(=O)NCc2ccc3c(c2)OCO3)c(=O)c2ccccc21	.	i
Cc1nnc(SCC(=O)NCc2ccco2)n1-c1ccccc1	.	i
CC(C)(Oc1ccc(Br)cc1)C(=O)N1CCc2ccccc21	.	i
Brc1cccc(OCCn2ccnc2)c1	.	i
COc1ccc(NC(=O)CC2C(=O)N(c3ccc(OC)cc3)C(=O)N2C(C)C)cc1 (configuration not stated)	.	i
CCC1=C2CC[C@H]3C(=O)N(c4ccccc4)C(=O)[C@H]3[C@H]2[C@@]2(C)C(=NCc3ccccc3)OC(=O)N2C1=O	.	i
CCCCn1c(SCC(=O)NCCOC)nc2ccc(N3CCOCC3)cc2c1=O	.	i
N#C/C(=C\c1ccccc1)C(=O)NC(=O)Oc1ccccc1	.	i
COc1ccccc1-c1nnc(Sc2nc([N+](=O)[O-])nn2C)o1	.	i
CC(C)OP(=O)(OC(C)C)C(NC(=O)c1cccc([N+](=O)[O-])c1)C(N)=O (configuration not stated)	.	i
NC(=O)NCC1CC1	.	i

Screens from PubChem BioAssay.

Not all compounds are listed; count on the stated rates, not on these rows.
